# Rango complex inh – Rango-importin beta binding inhibition; Q14974; Rango CFP/YFP FRET sensor + importin beta, 45 min; hit rate 0.031% among 340,000; Potency, µM (doses to about 92.2 µM), without a hit: at the top dose inhibition of complex formation; active = rising FRET ratio curve, often small or poorly fitted; inconclusive = mostly compound fluorescence or quenching in the first reads; inactive = flat curves in all reads;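 note: potency is the fitted concentration of half-maximal effect; 0% = DMSO wells and 100% = buffer wells lacking importin beta; nearly all actives have a fitted effect of over 15% in size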
# Target sequence (Q14974 whole entry, looked up): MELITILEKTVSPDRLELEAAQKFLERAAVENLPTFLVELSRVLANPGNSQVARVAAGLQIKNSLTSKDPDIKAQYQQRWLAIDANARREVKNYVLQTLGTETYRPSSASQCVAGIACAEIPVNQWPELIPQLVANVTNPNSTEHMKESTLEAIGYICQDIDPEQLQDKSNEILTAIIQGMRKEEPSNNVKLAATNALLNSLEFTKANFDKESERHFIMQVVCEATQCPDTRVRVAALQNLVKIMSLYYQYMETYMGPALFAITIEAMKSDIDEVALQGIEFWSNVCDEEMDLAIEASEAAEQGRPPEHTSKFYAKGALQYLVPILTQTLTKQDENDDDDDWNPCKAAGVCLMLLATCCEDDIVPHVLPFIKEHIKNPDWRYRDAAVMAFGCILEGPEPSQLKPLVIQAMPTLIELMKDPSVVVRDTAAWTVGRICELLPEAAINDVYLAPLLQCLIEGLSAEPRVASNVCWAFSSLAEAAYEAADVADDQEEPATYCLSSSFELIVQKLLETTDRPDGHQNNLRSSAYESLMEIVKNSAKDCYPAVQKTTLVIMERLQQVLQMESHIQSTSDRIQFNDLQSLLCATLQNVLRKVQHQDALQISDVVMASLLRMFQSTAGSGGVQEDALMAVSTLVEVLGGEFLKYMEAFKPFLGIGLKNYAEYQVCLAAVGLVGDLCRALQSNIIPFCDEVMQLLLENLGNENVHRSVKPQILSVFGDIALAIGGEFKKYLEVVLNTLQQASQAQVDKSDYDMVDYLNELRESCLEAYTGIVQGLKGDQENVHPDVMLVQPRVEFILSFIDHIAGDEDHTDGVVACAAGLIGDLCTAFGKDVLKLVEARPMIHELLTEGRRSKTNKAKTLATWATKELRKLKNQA
#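 FRET biosensor Rango (snurportin 1 IBB between N-terminal EYFP and C-terminal Cerulean), 50 nM in PBS/1 mM DTT/0.02% Tween-20/0.1% BSA, preincubated 5 min RT with compound; 0.125 microM importin beta added, 45 min RT, CFP/YFP FRET ratio read.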
# GLA inh pH 4.5 – alpha-galactosidase A (human) inhibition, pH 4.5. P06280. purified enzyme, 4-MU-alpha-Gal fluorescence, pH 4.5. activity change, negative = inhibition, % at 105 µM. 230,000 tested, under 10 active; inconclusive = small, poorly fitted or top-dose-only inhibition, or a rising curve; inactive = flat fitted curve, though single readings scatter; no compound was filed as active;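 note: 0% = full activity with enzyme and -100% = basal without enzyme; dose as in the result columns while the protocol names 77 µM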
# Rango dissoc inh – inhibitors of RanGTP-induced Rango-importin beta complex dissociation. O95149+P62826. Biochemical FRET Rango-importin beta, RanGTP-induced dissociation. Potency, µM (titrated, usually from 46.1 µM), for inactives: top-dose activity change, negative = inhibition. hit rate 0.071% among 340,000. AID 540253; active means falling FRET ratio curve, often poorly fitted, with flat reads before Ran was added; inconclusive means other falling curves, or compound fluorescence or quenching; inactive means flat or rising ratio curve;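 note: potency is the fitted concentration of half-maximal effect; % of control where 0% means no effect; nearly all actives have a fitted effect of over 45% in size; -100% = wells without RanGTP and RCC1; the record marks most hits as doubtful in a second field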
#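 Quantitative HTS using a FRET biosensor: 0.1 uM Rango, 0.25 uM importin beta, 0.6 uM Ran, 2 mM GTP, 0.2 uM RCC1 final, PBS with DTT, Tween-20 and BSA. Post-read taken 45 min after Ran addition.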
# miR-21 reporter – raises the signal of a miR-21 reporter; HeLa miR-21 FLuc reporter, luciferase, 48 h; Potency, µM (top dose mostly 38.3 µM), for the others: at the highest dose reporter change, positive = more light; 340,000 tested, under 10 active; active = well fitted rising curve with a large enough effect; inconclusive = small, poorly fitted or top-dose-only effect; inactive = no such curve, though single readings can be large or run the other way;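 note: % of control where 0% means no effect; miR-21 action dims this reporter so a rising signal means less miR-21 action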
#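 Compounds were titrated across several concentrations (up to approximately 40 uM) and incubated 48 hours with HeLa miR-21-FLuc reporter cells (miR-21 target sequence downstream of FLuc, endogenous miR-21). Readout was firefly luciferase luminescence after lytic detection reagent.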
# * marks the source's active call; other numbers are inactive results; u = inconclusive; x = no result given.
SMILES,Rango complex inh,GLA inh pH 4.5,Rango dissoc inh,miR-21 reporter
N#Cc1ccsc1NC(=O)CN1CCN(c2ccccc2O)CC1,0.6%,-12,25%,-27%
Cc1ccc2c(c1)[C@H]1[C@H](CO2)[C@H](c2ccccc2)[C@]2(C)C(=O)Nc3cc(F)c(F)cc3C(=O)N12,-5.6%,x,-1%,x
CCOc1nc(NCCN2CCOCC2)nc(Nc2ccc(C)cc2)n1,4.4%,0,-15%,-11%
CCCCCn1nc(C(=O)OCc2nc(N)nc(Nc3ccccc3)n2)c2ccccc2c1=O,-2.0%,x,2%,x
CCOc1cc(/C=N/NC(=O)C(=O)N/N=C/c2ccc(O)c(OCC)c2)ccc1O,1.1%,x,2%,6%
Cc1cc([N+](=O)[O-])nn1CC(=O)Nc1cnc2ccccc2c1,-1.1%,0,-8%,-2%
Cc1ccc(-c2csc(N3CCC(NS(=O)(=O)c4ccc5c(c4)OCCO5)CC3)n2)cc1,1.3%,-21,3%,u
O=C(CN1C(=O)NC2(CCCCCC2)C1=O)N1CCC(Cc2ccccc2)CC1,-0.8%,-6,1%,3%
C[C@H](NC(=O)c1nc[nH]c1C(=O)NC1CCN(C(=O)OC(C)(C)C)CC1)C(=O)OCc1ccccc1,u,-11,0%,-3%
COc1ccc(S(=O)(=O)N(Cc2cccnc2)Cc2cc3ccccc3[nH]c2=O)cc1,-1.8%,x,2%,4%
O=c1n(Cc2ccccc2Cl)nc2n1-c1ccccc1SC2,1.2%,-5,-8%,-69%
CC1CCN(c2nc(Cl)nc(Nc3ccc([N+](=O)[O-])cc3)n2)CC1,-3.4%,-3,-2%,-1%
O=C(COc1ccc([N+](=O)[O-])cc1)Nn1cnnc1,2.5%,2,-11%,-1%
COc1ccc(C)cc1N(CC(=O)NCCN1CCOCC1)S(=O)(=O)c1ccccc1,0.3%,x,-3%,x
COc1ccc(OC)c(S(=O)(=O)NCCCN2CCOCC2)c1,-0.2%,x,11%,x
O=C(Nc1ccc2nsnc2c1)NC1CCCCC1,-4.3%,-19,-1%,-43%
CCC(CC)C(=O)c1c[nH]c(C(=O)NCCc2ccccn2)c1,-3.5%,2,-3%,-22%
CCn1c(N2CCN(C(=O)C34CC5CC(CC(C5)C3)C4)CC2)nc2ccccc21,-2.3%,-5,-2%,14%
Cc1ccc(Cn2cc(SCC(=O)Nc3nccs3)c3ccccc32)cc1,-2.5%,7,-3%,-23%
O=C(COc1coc(CN2CCc3ccccc32)cc1=O)Nc1ccccc1,-0.7%,x,-9%,x
O=C(N/N=C/c1c(Cl)cccc1Cl)c1ccc(-n2cnnn2)cc1,-6.5%,x,3%,x
Cc1ccc(CN2CC(C(=O)NCC(=O)Nc3c(C)cccc3C)CC2=O)cc1 (stereo unspecified),-1.1%,x,-13%,x
Cc1ccc(C(=O)NC(C)c2ccc(F)cc2)cc1 (stereo unspecified),5.9%,5,-15%,-8%
CCN(CCCn1c(=S)[nH]c2ncccc2c1=O)c1ccccc1,1.5%,-6,-8%,2%
O=C(CNS(=O)(=O)Cc1ccccc1)NCc1ccccc1,-0.3%,x,-3%,-6%
Fc1cnc(N/N=C/c2ccc(-c3ccc(Br)cc3)o2)nc1N1CCOCC1,-1.4%,-2,30%,22%
O=C(Nc1cccc(C(F)(F)F)c1)c1cccnc1N1CCOCC1,0.2%,1,13%,-10%
O=C(/C=C/Nc1ccc(Nc2ccccc2)cc1)c1cccs1,u,1,-16%,-7%
COC(C[C@@H]1O[C@H]1C(=O)COCc1ccccc1)OC,-1.4%,x,0%,x
COC(=O)C1=C(C)N(CC2CC2)C(=NCc2cccc(C(F)(F)F)c2)N[C@H]1c1ccccc1,u,x,u,1%

# Reformatted with values under each structure: 2 of the compounds above.
# Under each structure – Rango complex inh | GLA inh pH 4.5 | Rango dissoc inh | miR-21 reporter
- Cc1ccc(CN2CC(C(=O)NCC(=O)Nc3c(C)cccc3C)CC2=O)cc1 (stereo unspecified)
→ -1.1% | x | -13% | x
- Cc1ccc(C(=O)NC(C)c2ccc(F)cc2)cc1 (stereo unspecified)
→ 5.9% | 5 | -15% | -8%

# Carrying on.
SMILES,Rango complex inh,GLA inh pH 4.5,Rango dissoc inh,miR-21 reporter
CCOc1ccc(S(=O)(=O)N2CCCC(C(=O)NCC3CCCO3)C2)cc1 (stereo unspecified),-4.4%,x,u,1%
N=C1CCCN1CC(=O)c1cccs1,3.6%,8,-5%,-1%
COC(=O)c1ccccc1Nc1ccnc(Cl)n1,-2.3%,x,2%,x
Cc1ccc(C(=O)NCc2ccco2)cc1S(=O)(=O)N1CCCC1,0.6%,x,0%,-4%
CC(C)c1cc(-c2cc(-c3ccccc3)on2)nc(NC2CCCC2)n1,-4.3%,4,6%,-8%
Cc1nnc(NC(=O)c2sc3nc(-c4cccs4)cc(C(F)(F)F)c3c2N)s1,u,-19,u,-2%
COC(=O)c1ccc(NC(=O)COC(=O)C2=NN(c3ccccc3)C(=O)CC2)cc1,4.1%,x,0%,x
COC(=O)c1ccc(NC(=O)COc2ccc([N+](=O)[O-])cc2)cc1,0.4%,18,11%,8%
CSc1nnc([C@H](Cc2c[nH]c3ccccc23)NC(=O)OC(C)(C)C)o1,-0.5%,-4,1%,-25%
CN(CC(=O)Nc1ccc(F)c(F)c1F)C(=O)C1CC(=O)N(c2ccc3c(c2)OCCO3)C1 (stereo unspecified),2.4%,x,21%,x
CCCCN(C(=O)Cn1nnc2ccccc21)C(C(=O)NCCOC)c1cccs1 (stereo unspecified),3.8%,-3,6%,-7%
COc1cccc(NC(=O)C2CCCN(S(C)(=O)=O)C2)c1 (stereo unspecified),-1.6%,x,0%,3%
O=c1c2ccccc2ncn1Cc1ccc(Cl)c(Cl)c1,3.3%,x,1%,0%
CCOCCCNCC(=O)Nc1ccc(S(=O)(=O)NC(C)CC)cc1 (stereo unspecified),-0.4%,0,-10%,-4%
O=c1cc(N2CCC3(CC2)OCCO3)[nH]c(=O)n1C1CCCCC1,0.0%,-7,5%,1%
Cc1ccc(C2CC2c2n[nH]c(=S)n2-c2ccc(Cl)cc2)cc1 (stereo unspecified),-0.4%,0,0%,-3%
CCOCCCNC(=O)C(NC(=O)c1cnccn1)c1ccc(C)cc1 (stereo unspecified),-0.4%,3,16%,-1%
O=C(CCC(=O)N1CCN(S(=O)(=O)c2ccc(Cl)cc2)CC1)Nc1ccc2ccccc2c1,-0.6%,3,-19%,2%
CCn1cc(S(=O)(=O)N2CCCC2)cn1,-2.9%,x,-17%,1%
CCOC(=O)/C(=N\Nc1ccc(OC)cc1)c1csc(Nc2ccccc2)n1,u,0,-23%,-14%
O=C(O)c1[nH]c2ccccc2c1CC(=O)N1CCN(c2ccccc2)CC1,1.6%,1,-3%,3%
Cc1csc2ncc(C(=O)Nc3ccccc3Cl)c(=O)n12,2.2%,6,1%,-15%
O=C(Nc1ccc(Cl)cc1Cl)c1ccc2c(=O)n3c(nc2c1)CCC3,u,x,6%,x
CCCNC(=O)NNC(=O)c1cc(-c2ccc3c(c2)OCO3)nc2ccccc12,2.6%,x,6%,-2%
COc1ccccc1CNC(=O)C1Cc2cc(S(=O)(=O)N3CCCC3)ccc2N1C(C)=O (stereo unspecified),-5.3%,x,-9%,-3%
O=C(Nc1ccc(Br)cc1)c1csc(-c2ccncc2)n1,-0.6%,-3,-8%,-11%
CN1C(=O)c2cccc(NC(=O)Cc3ccccc3)c2C1=O,u,-3,u,-8%
Cc1nc(Oc2ccccc2)c2oc3ccccc3c2n1,-1.1%,-3,3%,-12%
CCN(CC(=O)Nc1ccc(OC)cc1)CC(=O)Nc1sc2c(c1C(=O)OC)CCCC2,-0.1%,x,-8%,x
CCc1c(C)nc2ncnn2c1Nc1ccc(C)c(C)c1,9.2%,4,4%,-6%
CCN(c1ccccc1)S(=O)(=O)c1cc(C(=O)NCC(c2ccco2)N2CCCCC2)ccc1C (stereo unspecified),-0.3%,x,-6%,x
Cc1cc(SCC(=O)NC2CC2)nc2ccccc12,-3.2%,x,-10%,x
CCc1ccc2c(c1)c(N=NC1=NC(=O)CS1)c(O)n2CC,8.2%,-4,0%,-3%
COc1ccc(S(=O)(=O)NCC2CCCN(C(=O)CC3CCCC3)C2)cc1 (stereo unspecified),-0.2%,4,16%,4%
CC1CCCCN1CC(=O)Nc1ccc(N2CCCCCC2)cc1 (stereo unspecified),4.2%,5,20%,0%
Cn1c(Cl)nc2ccccc21,0.9%,0,32%,-6%
O=C1COCCOCCOCCOCC(=O)NCCN1,1.7%,1,0%,-6%
Cc1ccc(Sc2ccc(S(=O)(=O)Nc3ccc(C(=O)O)cc3)cc2)cc1C,-1.1%,x,19%,x
Cc1[nH]c2ccccc2c1C(C[N+](=O)[O-])c1ccco1 (stereo unspecified),u,1,-23%,6%
CCn1c(=O)c(C(=O)NNC(=O)c2ccccc2Br)c(O)c2ccccc21,-2.6%,x,0%,15%
COc1ccc(/C=C2/SC(=S)N(CCCC(=O)Nc3ccccc3C(=O)O)C2=O)cc1,-4.4%,x,-4%,29%
COC(=O)[C@@]1(C)[C@H]2C(=O)N(C)C(=O)[C@H]2[C@H]2CN(C)C(=NC3CCCCC3)N21,1.0%,x,12%,x
COc1cccc(N2CCN(C(=O)c3c(C)nn(-c4ccccc4)c3C)CC2)c1,0.9%,2,19%,-6%
CSc1ccc(/C=N/NC(=O)c2ccc(O)cc2)cc1,-1.0%,-13,-2%,-56%
Cc1ccc(N2CN=c3s/c(=C\c4cccnc4)c(=O)n3C2)cc1,1.2%,-2,-2%,18%
CCOc1ccc(OCC(=O)OC(C)C(=O)Nc2ccc(Cl)cn2)cc1 (stereo unspecified),0.9%,x,u,x
COCCn1c(SCc2nc3sc(C(=O)OC)c(C)c3c(=O)[nH]2)nc2ccccc21,u,7,-21%,-1%
C/C=C/n1ccnc1CC(O)(c1ccccc1)c1ccc(C)cc1 (stereo unspecified),-1.2%,x,-9%,x
Cc1ccc2c(c1)NC(=O)C(CC(=O)NC1CCCCC1C)O2 (stereo unspecified),-0.1%,1,1%,-16%
CC(C)c1nc2sc3c(=O)[nH]cnc3c2c2c1CCCC2,-3.1%,1,27%,-2%
# The listing continues:
SMILES,Rango complex inh,GLA inh pH 4.5,Rango dissoc inh,miR-21 reporter
Cc1ccc2c(c1)N(CCCC(=O)NCCCN1CCCC1=O)C(=O)CO2,-2.0%,3,6%,-11%
Cc1ccc(S(=O)(=O)N2[C@@H](c3cccc(Cl)c3)C(C(=O)O)=CC[C@H]2c2ccc(Cl)c(Cl)c2)cc1,-0.1%,x,-6%,x
Cc1nc2ccccc2n1CC(O)COCC1CC=CCC1 (stereo unspecified),1.1%,7,-9%,15%
CCc1ccc(C(=O)COC(=O)c2ccc(-c3nnc(-c4ccccc4)o3)cc2)cc1,0.5%,3,-7%,-33%
Cc1ccsc1C1C(C#N)=C(N)N(N(C)C)C2=C1C(=O)CCC2 (stereo unspecified),-3.6%,2,-2%,1%
Cc1ccc2oc(C(=O)N3CCN(CC(=O)NC(C)C)CC3)c(C)c2c1,-2.8%,x,-3%,-8%
CCC(=O)Nc1nnc(S(=O)(=O)N(CC)c2cc(C)cc(C)c2)s1,-2.2%,x,1%,0%
CSCCC(NC(=O)c1ccc(Cl)cc1)C(=O)OCC(=O)c1ccc[nH]1 (stereo unspecified),0.8%,-9,-9%,-2%
CCCOc1ccc(C2C(C(=O)c3ccco3)=C(O)C(=O)N2CCN2CCOCC2)cc1OC (stereo unspecified),x,-3,x,-3%
O=C(NC1CCN(S(=O)(=O)c2cccc(Cl)c2)CC1)C1CCCCC1,2.2%,x,19%,-2%

# Single records, as listed above. Screens in order: Rango complex inh	GLA inh pH 4.5	Rango dissoc inh	miR-21 reporter
# Listed for Cc1ccc2oc(C(=O)N3CCN(CC(=O)NC(C)C)CC3)c(C)c2c1 = -2.8%	x	-3%	-8%
# Listed for CCCOc1ccc(C2C(C(=O)c3ccco3)=C(O)C(=O)N2CCN2CCOCC2)cc1OC (stereo unspecified) = x	-3	x	-3%
# Listed for O=C(NC1CCN(S(=O)(=O)c2cccc(Cl)c2)CC1)C1CCCCC1 = 2.2%	x	19%	-2%
# Listed for CCc1ccc(C(=O)COC(=O)c2ccc(-c3nnc(-c4ccccc4)o3)cc2)cc1 = 0.5%	3	-7%	-33%

# Bioassay records deposited in PubChem by National Center for Advancing Translational Sciences (NCATS).

# A portion of the library; count on the stated rates, not on these rows.
